GALR2 ag – agonists of human galanin receptor 2 (GALR2). GALR2-expressing cells, agonist activation read-out. activation, %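 (tested at 5 µM)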. 140,000 tested, 0.48% active. AID 803;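 active means above mean plus 3 SD of all compounds, about 5% in these data, not always enough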;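 further: 0% = vehicle buffer wells and 100% = reference agonist at full effect; tested in CHO reporter cells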
PKD1 kinase inh – PKD1 (human) kinase inhibition | Q15139 | PKD1 kinase fluorescence polarization assay | inhibition, %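 (about 10 µM by stock and volumes)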 | 200,000 tested, 0.056% active;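 active means inhibition of 50% or more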;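 further: controls were vehicle for no effect and a reference inhibitor for full effect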
Target sequence (Q15139 whole entry, looked up): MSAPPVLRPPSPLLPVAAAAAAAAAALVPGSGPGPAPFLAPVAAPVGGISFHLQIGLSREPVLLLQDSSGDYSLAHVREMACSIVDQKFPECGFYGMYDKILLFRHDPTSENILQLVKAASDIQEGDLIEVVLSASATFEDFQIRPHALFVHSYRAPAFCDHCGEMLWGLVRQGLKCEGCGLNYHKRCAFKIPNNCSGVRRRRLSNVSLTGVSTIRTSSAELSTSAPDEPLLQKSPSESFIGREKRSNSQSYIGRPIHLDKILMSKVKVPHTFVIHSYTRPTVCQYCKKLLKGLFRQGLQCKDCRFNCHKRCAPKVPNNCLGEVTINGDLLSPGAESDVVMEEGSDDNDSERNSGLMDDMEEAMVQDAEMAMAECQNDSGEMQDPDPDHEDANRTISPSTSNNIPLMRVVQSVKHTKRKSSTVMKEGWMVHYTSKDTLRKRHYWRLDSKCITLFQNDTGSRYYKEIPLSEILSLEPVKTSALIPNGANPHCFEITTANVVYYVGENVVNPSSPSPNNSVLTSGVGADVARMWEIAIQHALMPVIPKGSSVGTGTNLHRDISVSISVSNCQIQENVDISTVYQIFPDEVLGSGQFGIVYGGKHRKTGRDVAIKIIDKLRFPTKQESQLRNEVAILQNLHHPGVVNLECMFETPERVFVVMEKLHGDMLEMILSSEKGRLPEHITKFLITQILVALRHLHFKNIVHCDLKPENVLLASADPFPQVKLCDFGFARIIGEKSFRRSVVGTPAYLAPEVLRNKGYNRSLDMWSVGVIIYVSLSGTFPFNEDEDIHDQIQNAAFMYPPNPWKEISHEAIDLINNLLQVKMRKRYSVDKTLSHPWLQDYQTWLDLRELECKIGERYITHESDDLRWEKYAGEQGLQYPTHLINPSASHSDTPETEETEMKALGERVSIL
Insulin prom inh – TRM-6 insulin promoter activity inhibition. TRM-6 cells (human fetal islet line), insulin promoter-eGFP reporter, imaging; reporter expression induced with tamoxifen. inhibition, % at 2 µM. 130,000 tested, 0.9% active;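 active means inhibition above the mean plus 3 SD, with well images judged a real hit on visual review, cut at about 60% in these data, passing the limit was not always enough; inconclusive means inhibition over the cutoff but images rejected on review; inactive means inhibition not above the cutoff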
RGS16-Gao – regulators of human RGS16-Galphao interaction; AID 1441; binding response (% of control), % at 10 µM; bead-based flow cytometry RGS16-Galphao binding, fluorescence; actives lie on both sides; O15492+P09471; 220,000 tested, 0.38% active;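 active means below 25% or above 175%, edge rows of some plates excepted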;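 further: Galphao activated by GDP with aluminum fluoride before binding; 100% = wells without compound and 0% = beads without RGS; some results beyond the cut were filed as inactive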
HSV replic up – HSV replication enhancement | maximum fold increase | 220,000 tested, 0.005% active | HSV replication augmentation in cells, fold increase;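 active means peak rise of 1.5-fold or more in the series; inconclusive means self-fluorescent or not available for retest; tested in PC3 cells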;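 further: first round at 10 µM; read as green reporter fluorescence; hits show the peak of a series up to 25 µM; 1 = signal of infected wells without compound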
Insulin prom inh cell count – recorded beside Insulin prom inh, whose call it bears; normalized cell count, %; measured here: cell count, toxicity; reference of the scale not given here;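 cells exposed to compound for 48 h; stained nuclei by imaging scaled within each plate; lower means fewer cells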
HSV replic up primary fold – second read-out of HSV replic up, no call of its own (marks repeat the call); fold increase; compound at 10 µM; measured here: primary screen fold increase 10 uM; tested in PC3 cells;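 GFP signal in the first replicate; 1 = infected wells without compound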
* marks the source's active call; other numbers are inactive results; i = inactive; ? = inconclusive; nt = not tested or not shown.

SMILES	GALR2 ag	PKD1 kinase inh	Insulin prom inh	Insulin prom inh cell count	RGS16-Gao	HSV replic up	HSV replic up primary fold
CCOC(=O)CC(=O)CSc1nc(-c2ccccc2)cc(-c2ccc(Cl)cc2)c1C#N	-1.7	8.6	-80.0	108.1	110.7	?	nt
CN(C)S(=O)(=O)c1ccc(C(=O)NCC(=O)N/N=C/c2ccco2)cc1	nt	-5.8	11.1	150.0	89.3	i	1.02
Cc1cc(C(=O)Nc2ccc(N3CCCC3)c(Cl)c2)ccc1[N+](=O)[O-]	-1.4	-10.2	-16.7	99.0	113.9	i	0.88
O=C(N/N=C/c1ccc(N2CCOCC2)cc1)c1ccc(O)cc1	nt	nt	nt	nt	94.5	i	1.06
O=C(O)C1=C[C@H](c2ccc(Br)cc2)C[C@H](OCCCCO)O1	nt	0.6	nt	nt	99.5	i	0.89
CSCC[C@H](NC(=O)OC(C)(C)C)c1nnc(SCC(=O)N(C)C)o1	-1.5	-12.7	-10.3	68.5	98.5	i	1.08
COC(=O)CN(c1ccc(C)cc1)S(=O)(=O)c1ccc(F)cc1	nt	-2.2	21.4	84.9	114.5	i	0.96
CCCCN1CC(C(=O)NCc2ccc(C)cc2)CC1=O (centres undefined)	-3.1	6.2	5.6	104.7	98.3	i	0.82
CC(=O)c1cccc(NC(=O)NC2CCCCC2)c1	-1.5	-6.6	nt	nt	101.1	i	0.96
CCCCN(CC)C(=O)Cc1ccc(Br)cc1	0.0	-0.5	-27.3	189.8	98.3	i	0.89
COCCNc1nc(N)c([N+](=O)[O-])c(NCC2CCCO2)n1 (centres undefined)	0.1	3.7	-29.6	84.9	98.6	i	1
Cc1nn(-c2nnc(C)c(=O)[nH]2)c(C)c1SCC(=O)Nc1ccc(F)cc1	-1.5	-6.0	10.7	91.2	116.0	i	0.93
Cc1ccc(-n2c(SCc3ccc(C#N)cc3)nnc2-c2ccccn2)cc1	-1.6	3.9	nt	nt	96.8	i	0.9
CCCCC1(C)OC(=O)C(=Cc2ccc(N(CC)CC)cc2)C(=O)O1 (centres undefined)	-1.2	-11.3	2.9	100.2	103.7	i	0.89
Cc1nc2ncnn2c(C)c1Cc1ccccc1Cl	-1.7	4.3	nt	nt	104.5	i	0.87
COc1ccc(NC(=O)N2CCCC(CCC(=O)N(C)CCc3ccccn3)C2)cc1 (centres undefined)	nt	-1.9	-95.1	56.8	109.6	i	0.99
Cc1ccc(-c2nc3ccccn3c2NCc2ccc3c(c2)OCO3)cc1	-1.0	-5.1	0.0	55.2	102.8	i	0.95
COC(=O)c1cccc(C23CC4(C2)[C@H](CN(Cc2ccc(C(F)(F)F)cc2)[C@@H]4c2ccccc2)C3c2ccc(Cl)nc2)c1 (some centres undefined)	nt	nt	nt	nt	98.3	i	0.94
COc1cc(-c2cc(C(=O)O)c3c(OC)c(OC)c(OC)cc3n2)ccc1O	-1.0	-5.3	63.6	152.0	98.6	i	1.14
Cn1cnnc1SCCn1c(N2CCCCC2)nc2c1c(=O)[nH]c(=O)n2C	-3.1	-7.7	nt	nt	95.6	i	0.92
CCOC(=O)N1CCN(C(=O)c2ccc(-n3c(=S)[nH]c4ccccc4c3=O)cc2)CC1	1.0	-9.5	-405.9	73.2	83.1	i	0.9
Cc1ccc(C(=O)O)cc1NC(=S)NC(=O)C(c1ccccc1)c1ccccc1	-3.8	-3.2	nt	nt	96.7	i	0.983
Cc1nn(Cc2ccccc2)c2c1C(c1ccccc1)C(C#N)=C(N)O2 (centres undefined)	-1.3	-9.9	-14.7	84.1	105.3	i	0.9
O=[N+]([O-])c1nn(-c2ccc(Cl)cc2)n(O)c1=NCc1ccccc1Cl	nt	-3.6	nt	nt	102.9	i	1.03
Cc1cccc(OCC(=O)Nc2ccc3c(c2)nc(CCN2CCN(C)CC2)n3C)c1	-0.4	-12.6	7.1	91.5	111.2	i	0.79

Five entries from above, in markdown.
| molecule | GALR2 ag | PKD1 kinase inh | Insulin prom inh | Insulin prom inh cell count | RGS16-Gao | HSV replic up | HSV replic up primary fold |
| --- | --- | --- | --- | --- | --- | --- | --- |
| O=C(N/N=C/c1ccc(N2CCOCC2)cc1)c1ccc(O)cc1 | nt | nt | nt | nt | 94.5 | i | 1.06 |
| Cc1ccc(-n2c(SCc3ccc(C#N)cc3)nnc2-c2ccccn2)cc1 | -1.6 | 3.9 | nt | nt | 96.8 | i | 0.9 |
| COCCNc1nc(N)c([N+](=O)[O-])c(NCC2CCCO2)n1 (centres undefined) | 0.1 | 3.7 | -29.6 | 84.9 | 98.6 | i | 1 |
| Cc1ccc(-c2nc3ccccn3c2NCc2ccc3c(c2)OCO3)cc1 | -1.0 | -5.1 | 0.0 | 55.2 | 102.8 | i | 0.95 |
| Cc1ccc(C(=O)O)cc1NC(=S)NC(=O)C(c1ccccc1)c1ccccc1 | -3.8 | -3.2 | nt | nt | 96.7 | i | 0.983 |

Remaining list, next part
SMILES	GALR2 ag	PKD1 kinase inh	Insulin prom inh	Insulin prom inh cell count	RGS16-Gao	HSV replic up	HSV replic up primary fold
O=C(CC1C(=O)NCCN1Cc1ccc(-c2ccccc2)cc1)NCC1CCOCC1 (centres undefined)	nt	-0.4	-20.0	122.3	99.2	i	0.94
Cc1c(NC(=O)c2cc3ccccc3o2)c(=O)n(-c2ccccc2)n1C	-3.3	-7.0	4.7	84.2	107.7	i	0.92
CCN(CC(O)Cn1c2ccccc2c2ccccc21)S(=O)(=O)c1ccc(F)cc1 (centres undefined)	-0.5	-9.4	-17.2	93.5	90.8	i	1.01
CCn1c(SCc2ccc(Cl)cc2Cl)nc2nc3c(cc2c1=O)CCCC3	0.0	-9.3	nt	nt	102.6	i	0.78
Nn1c(COc2cccc(Br)c2)nnc1SCC(=O)N1CCc2ccccc2C1	-3.7	-8.6	nt	nt	104.5	i	1.02
COc1ccc(CC(=O)NNC(=O)COc2ccc(Br)cc2C)cc1OC	-0.9	-19.5	23.1	69.5	107.1	i	0.97
COc1ccc(Cl)cc1NC(=O)c1nc2nc(C)cc(C(F)F)n2n1	-2.4	-9.7	nt	nt	100.0	i	0.94
Cc1ccc(S(=O)(=O)N2CCCC(C(=O)NCc3ccco3)C2)cc1Cl (centres undefined)	-0.1	-10.0	18.8	124.5	101.5	i	1.03
CC(CCc1ccccc1)NC(=O)c1ccco1 (centres undefined)	-1.5	-1.4	37.5	152.2	111.3	i	0.9
CN1C(=O)c2ccccc2C(C(=O)O)C1c1cccc([N+](=O)[O-])c1 (centres undefined)	nt	-2.6	nt	nt	97.6	i	1.09
CCOC(=O)c1nn(-c2ccccc2)c(C)c1C(C)=O	-0.3	-3.5	21.6	164.6	100.3	i	0.98
O=C(N/N=C/C=C/c1ccc([N+](=O)[O-])cc1)C1COc2ccccc2O1 (centres undefined)	-2.2	-1.6	11.8	136.3	98.0	i	1.02
O=C(O)/C=C/C(=O)NCCc1ccccc1	nt	1.0	-321.4	73.4	102.4	i	1.07
COc1cccc(/C=N/NC(=O)CCCC(=O)NC2CCCCC2)c1	-0.9	9.0	-46.1	106.4	101.0	i	0.93
N#CC1=C(N)C(C#N)(C#N)C(c2cccnc2)C2CCCC=C12 (centres undefined)	0.8	6.5	20.0	69.4	96.6	i	1.06
c1ccc(OCc2nn3c(C4CCCCC4)nnc3s2)cc1	-0.4	-6.2	nt	nt	96.8	i	0.99
O=C(CCNS(=O)(=O)c1cccs1)N1CCc2ccccc2C1	-0.1	-10.9	24.2	104.1	115.9	i	0.93
O=C(Nc1ccc(S(=O)(=O)Nc2ncccn2)cc1)c1cccnc1	-1.5	-6.2	-21.6	118.8	106.9	i	1.02
N#C/C(C(=O)NCCc1ccccc1)=C1/N=C(NC(=O)c2cccs2)c2ccccc21	-1.1	-0.7	nt	nt	100.1	i	1.26
O=C(NC(Cc1ccccc1)C(=O)O)/C(=C/c1ccco1)NC(=O)c1cccc(Br)c1 (centres undefined)	0.0	-10.4	-19.4	170.3	108.5	i	1.15
CC(=O)Cn1c2ccccc2n2nc(CCC(=O)O)c(=O)nc12	nt	-0.4	nt	nt	105.4	i	0.91
CCn1ccc(C(=O)Nc2ccc(Cl)cn2)n1	-1.8	-6.9	nt	nt	104.3	i	1.08
CC1Cc2ccccc2N1C(=O)c1cnc2sccn2c1=O (centres undefined)	-4.1	13.9	nt	nt	103.5	i	0.68
O=C(COc1ccc(S(=O)(=O)N2CCOCC2)cc1)Nc1ccc(Cl)c(C(F)(F)F)c1	-0.4	-3.6	16.3	95.0	100.5	i	0.71
CN(CCNC(=O)C1CC(=O)N(C2CCCC2)C1)Cc1ccccc1 (centres undefined)	-3.1	-2.8	nt	nt	nt	i	1.22

Other records.
SMILES	GALR2 ag	PKD1 kinase inh	Insulin prom inh	Insulin prom inh cell count	RGS16-Gao	HSV replic up	HSV replic up primary fold
COc1cccc(N=C2SC(C(=O)Nc3ccccc3F)CC(=O)N2C)c1 (centres undefined)	-2.0	-1.5	nt	nt	94.3	i	0.94
Cc1nc2cc(NC(=O)NC3CC3)ccc2n1C	nt	-1.0	nt	nt	105.1	i	0.94
CC(C)C(OC(=O)CN1C(=O)COc2ccccc21)C(=O)NC1CCCC1 (centres undefined)	-1.3	3.5	nt	nt	104.4	i	1.05
Cc1ccsc1/C=N/NC(=O)CNC(=O)c1ccc(S(=O)(=O)N(C)C)cc1	nt	-4.8	-44.4	77.5	102.8	i	1.05
O=C(OCc1ccccc1)C1CCCN1C(=O)c1cccs1 (centres undefined)	-0.5	-11.9	69.7	101.8	85.5	i	0.88
CCN(CC)CCOC(=O)c1c(C)oc2ccc(O)cc12	-0.4	4.3	-57.1	134.4	105.3	i	0.94
Cc1cccc2cc(C(c3nnnn3CC3CCCO3)N3CCc4ccccc4C3)c(=O)[nH]c12 (centres undefined)	-1.8	-11.0	nt	nt	76.3	nt	nt
Cc1ccc(NC(=O)COc2ccc(-n3cnnn3)cc2)cc1C	-2.3	6.3	-47.6	96.7	97.7	i	0.99
O=C(c1ccccc1F)N1CCc2ccccc21	-1.9	7.0	-53.9	64.7	nt	i	1.27
COc1ccccc1/C=N/NC(=O)C(C)Cn1cnc2ccccc21 (centres undefined)	0.7	2.0	nt	nt	102.3	i	1.14
O=C(O)COCC(=O)NCc1nc(-c2ccc(C(F)(F)F)cc2)no1	nt	nt	nt	nt	102.2	i	1.14
CC1=C(C(=O)OCc2ccccc2)C(c2ccc(C)o2)C2=C(CCCC2=O)N1 (centres undefined)	-0.1	1.7	-14.8	85.9	93.8	i	0.87
Cc1cc(NC(=O)c2ccc(NC(=O)C(C)Oc3ccccc3)cc2)no1 (centres undefined)	-1.1	-15.9	nt	nt	82.7	i	0.89
O=C(CSc1nc2nc[nH]c2c(=O)[nH]1)NC1CCCCC1	-0.8	-14.6	26.7	74.7	102.6	i	0.81
Cc1nc(C(=O)Nc2cccc(Cl)c2)nn1-c1cc(OC(C)C)c(Cl)cc1Cl	-0.9	1.6	-46.7	51.1	101.4	i	0.79
CN(C)[C@@H](CO)c1nnc([C@H](CC(=O)O)NC(=O)C2CCNCC2)o1	nt	6.1	nt	nt	141.1	i	0.98
O=C(c1ccccn1)N1CCN(C(=O)c2ccccn2)CC1	-2.7	-9.8	-3.3	90.2	91.1	i	0.85
CCOC(=O)C1(Cc2cccc(F)c2)CCN(C(=O)C2CCOCC2)CC1	nt	-0.1	nt	nt	98.5	i	0.96
Cc1cccc(CC2CC(=O)N(CCc3ccc4c(c3)OCO4)C2=O)c1 (centres undefined)	nt	-4.6	nt	nt	80.3	i	1.06
O=C(Cn1cc2c(n1)CCCCC2)Nc1c(F)c(F)cc(F)c1F	-2.6	15.0	nt	nt	100.3	i	0.91
Nc1c(N(CCO)C(=O)COc2ccc(Cl)cc2)c(=O)[nH]c(=O)n1Cc1ccccc1	-0.4	11.4	13.3	104.2	103.1	i	0.87
Cc1cccc(N2C(=O)C(O)=C(C(=O)c3cccs3)C2c2ccc(Cl)cc2)n1 (centres undefined)	nt	nt	nt	nt	94.5	i	0.99
O=C(Nc1ccccc1)c1ccc(-c2ccc(Br)cc2)o1	-1.7	-1.3	-206.2	83.0	107.1	i	0.67
CN1CCN(C2CC(=O)N(CCc3ccccc3)C2=O)CC1 (centres undefined)	nt	nt	nt	nt	99.9	i	1.01
O=C(COC(=O)CCc1nc2ccccc2s1)Nc1ccc(Cl)cn1	-1.6	8.7	nt	nt	108.0	i	1.01
COc1ccc(N2CCN(CC(=O)Nc3ccccc3SC)CC2)cc1	nt	-4.9	nt	nt	119.8	i	0.89
COc1cc(N2CCCC2)c(OC)cc1/C=c1/sc2nc3ccccc3n2c1=O	-4.0	-3.8	nt	nt	165.4	nt	nt
COc1cc(CO)ccc1OCC(=O)Nc1ccc(Br)cc1	nt	-3.4	nt	nt	96.9	i	0.83
O=C(O)CCc1ccc(-c2ccc(Cl)cc2)n1NC(=O)c1ccc(O)cc1	nt	4.1	nt	nt	104.9	i	0.99
